SARS PLP yeast: qHTS of Yeast-based Assay for SARS-CoV PLP; S. cerevisiae expressing SARS-CoV PLpro, growth rescue; control for the full effect not named in the record; AID 485353, 2010; Potency, µM (titrated, usually from 32.9 µM), for inactives: at the highest dose activity, positive = growth rescue; hit rate 0.19% among 330,000; also: 0% is about no effect; nearly all actives have a fitted effect of over 55% in size; growth read by luminescence after 48 h
LASV entry inh: qHTS for Inhibitors of binding or entry into cells for Lassa Virus. AID 540256, 2011. Potency, µM (top dose mostly 37.9 µM), without a hit: at the top dose activity change, negative = inhibition, hits mostly inhibitors. Lassa virus pseudotype entry inhibition, cell reporter; control for the full effect not named in the record. hit rate 1.2% among 300,000; active means well fitted inhibition curve with a large enough effect; inconclusive means small, poorly fitted or top-dose-only effect, or effect the other way; inactive means flat fitted curve, though single readings scatter; tested in HEK293 cells; also: % is scaled to controls: 0 for no effect and ±100 for the full control effect; nearly all actives have a fitted effect of over 50% in size; luciferase read-out
Cruzain inh noDet: qHTS Assay for Promiscuous and Specific Inhibitors of Cruzain (without detergent); purified cruzain, Z-FR-AMC fluorescence, no detergent; Cruzipain (Trypanosoma cruzi), P25779; Potency, µM, without a hit: max response, negative = inhibition, hits mostly inhibitors; hit rate 2.3% among 200,000; AID 1476, 2009; active = well fitted curve in the direction sought with a large enough effect; inconclusive = small, poorly fitted or top-dose-only effect, or another doubt; inactive = no such curve, though single readings can be large; an effect the other way counts as inactive or inconclusive;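 also: plate controls were enzyme without inhibitor for no effect and buffer without enzyme for full effect; nearly all actives have a fitted effect of over 40% in size; top concentration of the series not given in the record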
Target sequence (P25779 123-467 limits assumed): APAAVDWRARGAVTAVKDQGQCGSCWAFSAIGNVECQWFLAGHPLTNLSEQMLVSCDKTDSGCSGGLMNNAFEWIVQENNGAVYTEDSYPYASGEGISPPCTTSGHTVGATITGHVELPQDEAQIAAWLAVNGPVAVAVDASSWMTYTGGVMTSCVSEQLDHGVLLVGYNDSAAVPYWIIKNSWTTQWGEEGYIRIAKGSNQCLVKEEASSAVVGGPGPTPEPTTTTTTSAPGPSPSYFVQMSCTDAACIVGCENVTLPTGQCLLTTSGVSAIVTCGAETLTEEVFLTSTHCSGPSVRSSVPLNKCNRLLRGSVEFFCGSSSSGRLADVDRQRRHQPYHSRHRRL
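Detergent-free condition (0.00005% Triton X-100) in acetate buffer pH 5.5 with DTT. 1.5 nM enzyme and compound were pre-mixed 15 min, then 2 uM Z-FR-AMC substrate added; reaction progress from fluorescence change between first and third reads (60 s).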
2A StopGo: High Throughput Screening for Foot and Mouth Disease Virus Antivirals | hit rate 1.2% among 410,000 | human cells with a luciferase reporter of 2A StopGo recoding; control for the full effect not named in the record | Potency, µM (series often up to 57.9 µM), inactives show top-dose signal change, negative = less light | AID 1159524, 2015; active = well fitted falling curve with a large enough effect; inconclusive = small, poorly fitted or top-dose-only effect; inactive = no such curve, though single readings can be large or run the other way; tested in HEK293T cells; also: % is scaled to controls: 0 for no effect and ±100 for the full control effect; nearly all actives have a fitted effect of over 45% in size; luciferase light after 4 h
NS1 function inh: qHTS Assay for Inhibitors of Influenza NS1 Protein Function | Potency, µM (top dose mostly 46.1 µM), without a hit: top-dose activity, positive = more growth | S. cerevisiae slowed by influenza A NS1, growth recovery by OD600 | hit rate 0.4% among 270,000 | AID 2326, 2010; also: actives are rising curves; nearly all actives have a fitted effect of over 50% in size
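Read-out: OD600 growth recovery of NS1-expressing budding yeast. Cells grown overnight at 30C in -URA glucose medium, washed, resuspended and diluted 1:100 in 2% galactose assay medium, pH 6.0. Same strain lacking NS1 served as positive control.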
Cruzain Triton: qHTS Assay for Promiscuous and Specific Inhibitors of Cruzain (with detergent); Cruzipain (Trypanosoma cruzi), P25779; purified cruzain, Z-FR-AMC fluorescence, 0.01% Triton; Potency, µM, inactives show max response, negative = inhibition, actives largely listed as inhibitors; hit rate 0.43% among 200,000; AID 1478, 2009; active = well fitted curve in the direction sought with a large enough effect; inconclusive = small, poorly fitted or top-dose-only effect, or another doubt; inactive = no such curve, though single readings can be large; an effect the other way counts as inactive or inconclusive;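 also: plate controls were neutral wells for no effect and buffer without enzyme for full effect; nearly all actives have a fitted effect of over 40% in size; top concentration of the series not given in the record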
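15 min RT preincubation of 1.5 nM cruzain with compound, then 2 uM Z-FR-AMC added; kinetic AMC fluorescence, 60 s delta. Triton X-100 0.01%, pH 5.5.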
RE007 growth inh: qHTS Assay for Inhibitors of the HIV-1 protein Vpr. S. pombe RE007 Vpr strain, BacTiter-Glo ATP luminescence, 24 h; control for the full effect not named in the record. Potency, µM (titrated, usually from 92.2 µM), for inactives: at the highest dose activity change, negative = less growth. hit rate 0.21% among 360,000; active = well fitted falling curve with a large enough effect; inconclusive = small, poorly fitted or top-dose-only effect; inactive = no such curve, though single readings can be large or run the other way;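 also: % is scaled to controls: 0 for no effect and ±100 for the full control effect; nearly all actives have a fitted effect of over 50% in size; the assay follows cell death caused by Vpr and the record does not say whether a fall means rescue or toxicity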
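Fission yeast RE007 carrying one integrated HIV-1 vpr copy, seeded at OD 0.01 in PMG+AL medium with 23 nL pinned compound. Grown 24 h at 30 degrees; viability read by BacTiter-Glo luminescence after 5 min.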
MARV entry inh: qHTS for inhibitors of binding or entry into cells for Marburg Virus; AID 540276, 2011; Potency, µM (series often up to 37.8 µM), without a hit: top-dose activity change, negative = inhibition, hits mostly inhibitors; Marburg virus pseudotyped entry inhibition, cell reporter; control for the full effect not named in the record; about a third of the inactives were read at about 46 µM; hit rate 1.8% among 300,000; active = well fitted inhibition curve with a large enough effect; inconclusive = small, poorly fitted or top-dose-only effect, or effect the other way; inactive = flat fitted curve, though single readings scatter; tested in HEK293 cells; about a fifth of its hits are not listed in these tables; also: % is scaled to controls: 0 for no effect and ±100 for the full control effect; luciferase read-out
* marks the source's active call; other numbers are inactive results; ? = inconclusive; nt = not tested or not shown; & = joins results of further samples; [ ] = remark or other dose. Unless noted, calls follow the shape of the dose curve; as a rule, active means well fitted rising curve with a large enough effect; inconclusive means small, poorly fitted or top-dose-only effect; inactive means no such curve, though single readings can be large or run the other way. Potency is read from the fitted curve at half-maximal effect.

SMILES | SARS PLP yeast | LASV entry inh | Cruzain inh noDet | 2A StopGo | NS1 function inh | Cruzain Triton | RE007 growth inh | MARV entry inh
N#CCC(=O)Nc1ccc(C(=O)NCC(c2ccco2)N2CCCCC2)cc1 (stereo not given) | 1% | -3% | nt | -7% | nt | nt | 7% | -24%[46.1 µM]
CCc1ccc(-n2c(=O)c3c4c(sc3n(CC(=O)NCCCOC)c2=O)CCC4)cc1 | nt | 4%[46.1 µM] | 12% | -14% | nt | -0.1% | nt | 12%[46.1 µM]
CSc1nc(-c2ccco2)nn1C(=O)Cc1ccccc1 | -5% | 4% | 0% | 2% | -3% | 7.5% | ? | 1%
CC(C)(C)C(=O)N1CCN(c2ccc([N+](=O)[O-])cc2-n2cccc2)CC1 | 1% | -11%[46.1 µM] | nt | ? | -4% | nt | -7% | ?
COc1cc(NC(=S)Nc2ccc(OC(F)F)cc2)cc(OC)c1 | -1% | -27%[46.1 µM] | nt | -15% | 5% | nt | 9% | ?
Cc1ccc(S(=O)(=O)N2CCOCC2)cc1C(=O)NC(=S)N(Cc1ccccc1)C(C)C | -19% | 7% | ? | -8% | 23% | -3.4% | 2% | 14%
Cc1c(Cl)cccc1N1CC(C)(C)C1=O | 0% | 8% | nt | -9% | nt | nt | -13% | 2%[46.1 µM]
Cc1nn(Cc2ccccc2Cl)c(C)c1C(=O)OCC(=O)N1CC(C)OC(C)C1 (stereo not given) | 12% | -16% | 5% | 0% | -4% | 1.3% | -10% | 20%
O=C(N/N=C/c1cccc([N+](=O)[O-])c1)c1ccccc1-n1cccc1 | -1% | 0% | nt | -20% | nt | nt | -5% | ?
CC(C(=O)N(C)C)N1c2cccc3cccc(c23)S1(=O)=O (stereo not given) | 1% | nt | nt | -14% | 1% | nt | 1% | nt
Cc1ccc(S(=O)(=O)c2ccc(NC(=O)c3c(F)cccc3F)cc2)cc1 | -4% | nt | nt | 19% | 1% | nt | -12% | nt
CC1=C(C(=O)Nc2cccc(C(=O)N3CCC(C(N)=O)CC3)c2)SCCO1 | -2% | nt | nt | -9% | -2% | nt | 14% | nt
Nc1nnn(CC(=O)N/N=C/c2cn[nH]c2-c2ccccc2)n1 | 0% | 25% | nt | -10% | 3% | nt | 50% | 4%[46.1 µM]
Cn1nc(CC(=O)NCCN2C(=O)CSC2=O)c2ccccc2c1=O | -1% | -3% | 2% | -5% | 1% | 2.6% | 11% | -4%
CCN(CC)S(=O)(=O)c1ccc2oc(C(=O)NC(C)C)c(C)c2c1 | 0% | ? | 18% | -29% | -11% | 0.5% | 18% | -12%
COc1ccc(S(=O)(=O)N2CCCCCC2)cc1NC(=O)Cc1cc(OC)c(OC)c(OC)c1 | 16% | -2% | ? | -14% | 15% | -1.8% | nt | ?
COc1ccccc1NC(=O)CSc1nc(=O)n(CCN(C)C)c2c1CCCC2 | -1% | -1% | nt | -11% | nt | nt | 1% | 19%
CCCCn1c(N)c(N(CCOC)C(=O)c2cccc(N3C(=O)c4ccccc4C3=O)c2)c(=O)[nH]c1=O | 1% | 2%[46.1 µM] | nt | -1% | nt | nt | 14% | 5%
Cc1ccc(-c2nn(-c3ccccc3)c3[nH]c(=O)c(CNCCN(C)C)cc23)cc1 | -3% | nt | -8% | nt | -1% | -1.6% | nt | 3%
Cc1ccccc1C(=O)Nc1ccc(C(=O)NNC(=O)CCCOc2ccc(Cl)cc2Cl)cc1 | ? | -12% | 10µM* | -4% | 0% | 3.1% | -3% | -12%
CC(C)C(O)(C#CCN1CCCCC1)C(C)C | ? | -1% | 21% | -29% | 13% | 8.8% | 5% | 20%&20%
COCCCNC(=O)c1cc(-c2cccnc2)nc2ccc(S(=O)(=O)N3CCCCCC3)cc12 | 2% | ? | nt | 22% | 11% | nt | 15% | 10%[46.1 µM]
O=Nc1c(O)n(Cc2cccc(Cl)c2)c2ccccc12 | -9% | ? | -6% | -4% | -14% | -6.0% | ? | ?
CCC(=O)N1CCc2cc(S(=O)(=O)CCC(=O)Nc3ccc(CC)cc3)ccc21 | -1% | -13% | 3% | -24% | -10% | 2.8% | -3% | -4%
CN1C(=O)[C@H]2[C@@H](c3ccc(F)cc3)N3C(=O)c4ccccc4NC(=O)[C@@]3(C)[C@H]2C1=O | -4% | nt | nt | -6% | -19% | nt | -1% | nt
Remaining list, next part.
SMILES | SARS PLP yeast | LASV entry inh | Cruzain inh noDet | 2A StopGo | NS1 function inh | Cruzain Triton | RE007 growth inh | MARV entry inh
O=S1(=O)CCC(NS(=O)(=O)/C=C/c2ccccc2)C1 (stereo not given) | -1% | -22%[14.3 µM] | -6% | 57%[activator] | 2% | 3.6% | 12% | 3%
CN(C)/C=N/C(=S)Nc1ccc(Cl)c(Cl)c1 | -3% | -27% | nt | 44%[activator] | -3% | nt | ? | ?
CCn1nnnc1SCC(=O)Nc1ccc(F)cc1 | -1% | 16%[46.1 µM] | nt | 24% | -13% | nt | 8% | 25%[46.1 µM]
Cc1ccc(-n2c(SCC(=O)Nc3cccc(C)c3)nc3c(oc4ccccc43)c2=O)cc1 | -3% | nt | ? | -11% | -1% | 1.8%&-1.8% | nt | ?
Cc1oc(C(=O)O)cc1COc1cccc2cccnc12 | 1% | -8% | -8% | -1% | -6% | -0.4% | -2% | 6%
Cc1nc(N2CCOCC2)nc(N2CCN(c3ccccc3)CC2)c1[N+](=O)[O-] | -5% | 6% | 1% | -24% | 12% | -5.7% | 9% | 0%
O=C(COc1cccc2c1CCN(Cc1ccc(Br)cc1)C2=O)NCc1ccco1 | -9% | ? | 18% | ? | -4% | -5.5% | nt | ?
Cc1ccc2oc(=O)c3cnn(CC(=O)NCCN(C)C)c3c2c1 | -2% | nt | 2% | -17% | -3% | -4.0% | -11% | nt
NS(=O)(=O)c1ccc(NNC(=O)c2ccccc2C(=O)O)cc1 | 1% | nt | nt | 8% | 0% | nt | 3% | nt
Cc1nc(/N=C\N(C)C)sc1C(=O)Nc1ccccc1 | -3% | 6% | -5% | 1% | -2% | -7.8% | 13% | ?
COc1cccc(CC2(CO)CCCN(C/C=C/c3ccccc3OC)C2)c1 (stereo not given) | 0% | nt | nt | -20% | 3% | nt | 9% | nt
Cc1ccc(NC(=O)C2CCN(C(=O)c3sc4nc[nH]c(=O)c4c3C)CC2)cc1F | nt | 10%[46.1 µM] | 3% | 15% | nt | -2.8% | nt | nt
Cc1ccc(-c2cc(C(=O)N/N=C/c3c(C)nn(-c4ccccc4)c3C)[nH]n2)cc1 | -11% | nt | ? | nt | ? | -5.5% | nt | -2%
Cc1ccccc1NC(=O)Cn1cc(C(=O)C2CC2)c2ccccc21 | 14% | 10%[46.1 µM] | nt | 23% | 0% | nt | -10% | ?
CC(C)c1ccc2c(c1)C(c1ccc(N3CCOCC3)cc1)=NNC(c1cccs1)=N2 | -4% | 19% | -4% | 59%[activator] | 26% | -1.2% | 0% | 2%
Cc1c(N)c(C)c([N+](=O)[O-])c(C)c1[N+](=O)[O-] | 0% | -13% | nt | -6% | 8% | nt | -4% | -1%
COc1ccccc1N1CCN(C(=O)c2cc(-c3ccco3)on2)CC1 | -6% | nt | 3% | 0% | -20% | -11% | 5% | nt
O=C(Nc1ccc(F)c([N+](=O)[O-])c1)C1CC(=O)N(Cc2ccccc2)C1 (stereo not given) | 3% | -19%[46.1 µM] | nt | 46%[activator] | 0% | nt | -4% | 1%[46.1 µM]
O=Cc1ccc(-c2nc3ccccc3s2)o1 | -4% | -19%[46.1 µM] | nt | -31% | -35% | nt | -10% | 1%[46.1 µM]
CC1=C(C)CC(C(=O)NC2CCCC2)C(C(=O)O)C1 (stereo not given) | 5% | nt | nt | 35%[activator] | 1% | nt | 19% | nt
CSc1ncccc1-c1nc2ccccc2[nH]1 | 1% | 11% | -21% | 42%[activator] | -71% | -6.6% | -27% | ?
COC(=O)[C@H](CCSC)NC(=O)NC1CC1 | 0% | nt | nt | 1% | -3% | nt | 2% | nt
COc1cc2c(cc1NC(=O)COc1ccc(Cl)cc1Br)oc1ccccc12 | nt | -1%[46.1 µM] | 3% | 3% | nt | -1.7% | nt | -2%[46.1 µM]
O=C(c1cc2cc3ccc(Cl)cc3nc2o1)N1CCN(c2cccc(Cl)c2)CC1 | nt | 5%[46.1 µM] | -1% | 17% | nt | 0.1% | nt | 4%[46.1 µM]
O=C(CCc1cn(Cc2ccccc2F)c2ccccc12)NCc1ccc(Cl)cc1 | nt | -2%[46.1 µM] | -12% | 10µM* | nt | -7.9% | nt | nt
Next section
SMILES | SARS PLP yeast | LASV entry inh | Cruzain inh noDet | 2A StopGo | NS1 function inh | Cruzain Triton | RE007 growth inh | MARV entry inh
Cc1ccc(S(=O)(=O)N(CC(=O)Nc2ccc(Cl)cc2Cl)c2ccccc2C)cc1 | nt | -1%[46.1 µM] | -30% | -16% | nt | -3.5% | nt | ?
Cc1cccc2cc(CN(Cc3cccs3)C(=S)NCC3CCCO3)c(=O)[nH]c12 (stereo not given) | 1% | -24% | 3% | -21% | -3% | -8.3% | -12% | ?
CCN(CC)S(=O)(=O)N1CCC(C(=O)NCCC2=CCCCC2)CC1 | 2% | -19% | nt | -7% | nt | nt | -9% | 4%
COc1ccc(CN2CCN(C(=O)c3cccnc3)CC2)cc1Br | 12% | ? | -1% | -10% | -8% | 1.5% | -4% | -6%&-17%
O=C(Oc1cccnc1)c1cc(S(=O)(=O)N2CCCCC2)ccc1Cl | -1% | 21% | -5% | 2% | 2% | 0.4% | 16% | 5%
COC(=O)C1=NN(c2cccc(C)c2)C2C(=O)N(c3ccccc3OC)C(=O)C12 (stereo not given) | 3% | 0% | ? | -23% | -3% | -15% | 14% | -10%
Nc1ncnc(Nc2ccccn2)c1[N+](=O)[O-] | 0% | 3% | nt | -17% | 5% | nt | -16% | -1%[46.1 µM]
Cc1ccc(C(C(=O)NC2CCCCC2)N(CCC(C)C)C(=O)CNC(=O)c2ccco2)o1 (stereo not given) | 4% | -8% | 27% | -6% | 1% | 0.9% | -9% | -31%
O=C(c1ccc(-c2cccc(C(F)(F)F)c2)o1)N1CCN(c2ccccc2)CC1 | 0% | 11% | nt | -24% | nt | nt | -4% | -9%
CN(C)S(=O)(=O)N1CCC(Oc2ccc(C(=O)N3CCCCCCC3)cc2)CC1 | 8% | -19% | nt | 1% | 12% | nt | 25% | -7%

Screening data (PubChem BioAssay)

Rows are unselected; any-hit rate near 4.7%.
